HCMV UL50-53 inh – inhibitors of HCMV UL50-UL53 nuclear egress complex interaction | AID 1918969 | HTRF UL50-UL53 interaction, normalized percent inhibition | inhibition, % (test concentration not listed) | 0.15% of 190,000 active;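 active = both replicates at 50% or more, plus weaker picks with an unusually low signal ratio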;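 note: stock transfer was 100 nL into about 20 µL; 0% = negative control wells and 100% = wells with untagged competitor protein; inactives centre near -12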
GIV Gai3 FP – blocks GIV peptide binding to rat Galpha-i3; P08753; Galpha-i3/FITC-GIV peptide fluorescence polarization, 90 min; hits give low values; scaled: aluminum fluoride 0%, vehicle 100%; percent of control (FP), % (concentration not given with the values); 0.42% of 210,000 active;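 active = replicate mean at 85% of control or lower, very high polarization wells dropped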;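 note: wells of about 15 µL received 100 nL stock; the first replicate is given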
Target sequence (P08753 whole entry, looked up): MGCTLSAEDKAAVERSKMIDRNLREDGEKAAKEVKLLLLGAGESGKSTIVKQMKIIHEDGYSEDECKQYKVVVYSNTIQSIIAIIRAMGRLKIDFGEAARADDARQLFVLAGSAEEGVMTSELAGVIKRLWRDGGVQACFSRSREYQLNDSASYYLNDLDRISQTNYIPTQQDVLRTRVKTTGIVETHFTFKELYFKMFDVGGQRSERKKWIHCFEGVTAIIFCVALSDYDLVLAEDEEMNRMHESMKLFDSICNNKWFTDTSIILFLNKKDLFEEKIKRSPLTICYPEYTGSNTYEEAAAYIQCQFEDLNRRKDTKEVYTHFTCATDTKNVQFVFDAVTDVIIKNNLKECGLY
Sa growth 42C – S. aureus growth inhibition; relative growth, % (no concentration beside the values); 0.53% of 170,000 active; S. aureus RN4220 growth, OD600, 20 h, 42 °C; hits give low values;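 active = growth at 42 °C up to 50% and 20 or more points under that at 30 °C, or under 10% at both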;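 note: 300 nL library stock went into each well; scaled to the means of positive and negative controls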
Sa growth 42C second temp – also measured in Sa growth 42C; calls as there; relative growth, %; measured here: growth at 30 °C;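 optical density after 20 h as mean of two plates; 100% = untreated growth and lower means inhibition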
Starred values were filed as active, the others as inactive; x = no result given; & = joins results of further samples.

SMILES	HCMV UL50-53 inh	GIV Gai3 FP	Sa growth 42C	Sa growth 42C second temp
CC(C)C(=O)N1c2ccccc2NC2=C(C(=O)CC(C)(C)C2)C1c1ccc(Br)s1 (stereo not given)	-6	106	x	x
CCOC(=O)n1nccc1-c1ccc(-c2cccs2)s1	0	106	135	82
CC(C)Oc1ccc(CNC(=O)c2ccc3nc(SCc4ccc(F)cc4)n(C)c3c2)cc1	11	104	91	103
COc1ccc(-c2c(C)c3ccc(O)c(CN4CCCCC4C)c3oc2=O)cc1OC (stereo not given)	x	97	92	92
COc1ccc(N2C(=O)CC(Sc3nc4c(cc3C#N)CCCCC4)C2=O)cc1 (stereo not given)	-21	104	x	x
CCOC(=O)c1c(Nc2ccc(O)cc2)nnc(-c2ccccc2)c1-c1ccccc1	-9	106	105	88
Cc1cc(C)c2c(n1)sc1c(=O)n(NC(=O)Nc3ccccc3)c(C)nc12	-11	109	110	95
CN1CC2=C(C1=O)C(c1ccccc1)NC(=O)N2 (stereo not given)	-21	x	84	88
CC1=CC(C)(C)N(C(=O)c2ccccc2)c2ccc(OC(=O)c3ccccc3)cc21	-4	x	104	93
CN1C(=O)COc2ccc(N)cc21	-8	105	82	76
Cc1cc2c3c([nH]c2cc1S(=O)(=O)N(CCN1CCOCC1)Cc1ccco1)CCCC3=O	-28	103	90	80
CC(=O)Nc1cc(C(=O)NCCc2ccccc2)ccc1Sc1ccc(Cl)cc1	x	100	114	72
O=C(NCc1nc(-c2ccccc2)no1)c1ccc(-c2ccccc2)cc1	-10	99	97	92
Cc1nc2sc(C(N)=O)c(N)c2c(-c2ccc(Br)cc2)c1C(=O)Nc1ccc(Cl)cc1	1	102	116	63
Cc1ccc(NC(=O)c2cc(C3CC3)[nH]n2)cc1	-27	101	92	85

Among those listed so far, 2 contain an aryl methoxy group.
SMILES	HCMV UL50-53 inh	GIV Gai3 FP	Sa growth 42C	Sa growth 42C second temp
COc1ccc(-c2c(C)c3ccc(O)c(CN4CCCCC4C)c3oc2=O)cc1OC (stereo not given)	x	97	92	92
COc1ccc(N2C(=O)CC(Sc3nc4c(cc3C#N)CCCCC4)C2=O)cc1 (stereo not given)	-21	104	x	x

(cont.)
SMILES	HCMV UL50-53 inh	GIV Gai3 FP	Sa growth 42C	Sa growth 42C second temp
CCOc1ccc(C2c3cccn3-c3sc4c(c3CN2C(=O)NCCC(=O)OC)CCCC4)cc1 (stereo not given)	-30	105	x	x
Cc1cc(OCc2ccccc2)nc2c1c(C)nn2C	14	106	x	x
O=C(NCCCN1CCC(Cc2ccccc2)CC1)c1csc2c1CCCCC2	-6	98	x	x
CC(C)c1ccc(NC(=O)CN(c2ccnn2C(C)C)S(=O)(=O)c2ccccc2)cc1	8	x	100	96
Cc1ccccc1NC(=S)N(CCCN1CCCC1)Cc1cccn1Cc1ccc(Cl)cc1	x	104	154	68
Nc1nccnc1C(=O)OCC(=O)N(c1ccccc1)C1CCCCC1	-14	x	97	94
CCc1cc(C(=O)c2ccc(OC)cc2)c(N)s1	-18	104	91	77
CSc1nc(-c2cnccn2)nc(-c2ccccc2Cl)c1C#N	-10	95	97	77
COc1ccc(NC(=O)Cn2c(=O)n(-c3ccc(OC)cc3)c(=O)c3ccc(C(=O)NCc4ccc(C)cc4)cc32)cc1	-30	102	99	90
CC1CCCCN1CCCNC(=O)c1ccc2c(c1)NC(=O)CS2 (stereo not given)	-18	102	103	90
COc1ccc(-n2ncc(C(=O)N3CCN(C4CCCCC4)CC3)c2C2CCN(C(=O)OC(C)(C)C)CC2)cc1	x	111	100	89
Cc1ccc(C)c(Cn2cccc2C#N)c1	-10	101	113	90
CCOC(=O)c1cnn(-c2ccccc2)c1NC(=O)c1ccco1	1	105	97	99
COc1ccc(CNC(=O)C2(CC(=O)NC(C)(C)C)CCCC2)cc1	-14	x	100	86
COc1ccc(-c2cc(C(=O)Oc3ccccc3)c3cc(C)ccc3n2)cc1	-6	108	101	100

Rewritten with two lines to a compound: 21 of the compounds above
Value order: HCMV UL50-53 inh, GIV Gai3 FP, Sa growth 42C, Sa growth 42C second temp
> CC(C)C(=O)N1c2ccccc2NC2=C(C(=O)CC(C)(C)C2)C1c1ccc(Br)s1 (stereo not given)
 : -6, 106, x, x
> CCOC(=O)n1nccc1-c1ccc(-c2cccs2)s1
 : 0, 106, 135, 82
> CC(C)Oc1ccc(CNC(=O)c2ccc3nc(SCc4ccc(F)cc4)n(C)c3c2)cc1
 : 11, 104, 91, 103
> COc1ccc(-c2c(C)c3ccc(O)c(CN4CCCCC4C)c3oc2=O)cc1OC (stereo not given)
 : x, 97, 92, 92
> COc1ccc(N2C(=O)CC(Sc3nc4c(cc3C#N)CCCCC4)C2=O)cc1 (stereo not given)
 : -21, 104, x, x
> CCOC(=O)c1c(Nc2ccc(O)cc2)nnc(-c2ccccc2)c1-c1ccccc1
 : -9, 106, 105, 88
> Cc1cc(C)c2c(n1)sc1c(=O)n(NC(=O)Nc3ccccc3)c(C)nc12
 : -11, 109, 110, 95
> CN1CC2=C(C1=O)C(c1ccccc1)NC(=O)N2 (stereo not given)
 : -21, x, 84, 88
> CC1=CC(C)(C)N(C(=O)c2ccccc2)c2ccc(OC(=O)c3ccccc3)cc21
 : -4, x, 104, 93
> CN1C(=O)COc2ccc(N)cc21
 : -8, 105, 82, 76
> Cc1cc2c3c([nH]c2cc1S(=O)(=O)N(CCN1CCOCC1)Cc1ccco1)CCCC3=O
 : -28, 103, 90, 80
> CC(=O)Nc1cc(C(=O)NCCc2ccccc2)ccc1Sc1ccc(Cl)cc1
 : x, 100, 114, 72
> O=C(NCc1nc(-c2ccccc2)no1)c1ccc(-c2ccccc2)cc1
 : -10, 99, 97, 92
> Cc1nc2sc(C(N)=O)c(N)c2c(-c2ccc(Br)cc2)c1C(=O)Nc1ccc(Cl)cc1
 : 1, 102, 116, 63
> Cc1ccc(NC(=O)c2cc(C3CC3)[nH]n2)cc1
 : -27, 101, 92, 85
> CCOc1ccc(C2c3cccn3-c3sc4c(c3CN2C(=O)NCCC(=O)OC)CCCC4)cc1 (stereo not given)
 : -30, 105, x, x
> Cc1cc(OCc2ccccc2)nc2c1c(C)nn2C
 : 14, 106, x, x
> O=C(NCCCN1CCC(Cc2ccccc2)CC1)c1csc2c1CCCCC2
 : -6, 98, x, x
> CC(C)c1ccc(NC(=O)CN(c2ccnn2C(C)C)S(=O)(=O)c2ccccc2)cc1
 : 8, x, 100, 96
> Cc1ccccc1NC(=S)N(CCCN1CCCC1)Cc1cccn1Cc1ccc(Cl)cc1
 : x, 104, 154, 68
> Nc1nccnc1C(=O)OCC(=O)N(c1ccccc1)C1CCCCC1
 : -14, x, 97, 94

Remaining list, next part.
SMILES	HCMV UL50-53 inh	GIV Gai3 FP	Sa growth 42C	Sa growth 42C second temp
CCC(C)NC(=O)CCCc1nnc(C(=O)Nc2ccc(OC)cc2)s1 (stereo not given)	2	105	x	x
CCCNCc1cc(=O)n2[nH]c(NCc3ccc(C(C)C)cc3)nc2n1	-14	97	x	x
CCN(CC)c1ccc2oc(=O)c(C)nc2c1	-11	-41*	68	41
O=C1NC2(CCCC2)NN1C(=O)c1ccncc1	x	104	97	94
CC(O)(C(=O)O)c1ccccc1 (stereo not given)	-5	111	101	91
Nc1c(C(=O)Nc2ccccc2)sc2nc3c(cc12)CN(Cc1ccccc1)CC3	-68	101	98	81
Cc1cc(C)c(C#N)c(SCCOc2ccccc2F)n1	-8	x	88	96
CCCS(=O)(=O)n1nc(-c2ccccc2)cc1N	-9	106	109	88
Cc1cc(C)cc(NS(=O)(=O)c2ccc(-n3cccn3)cc2)c1	x	107	132	105
Clc1c2c(nn1-c1ccccc1)CCCC2	-12	x	95	82
C#CCOc1ccc(-c2nnc(Nc3cccc(C)c3)c3ccccc23)cc1	-13	102	95	93
CN1CCN(C(=O)CCc2nc3ccccc3c(=O)[nH]2)CC1	-10	x	87	89
CC1=CN2C(=O)C(Cc3ccccc3)(NC(=O)c3ccccc3)N=C2C=C1 (stereo not given)	-3	103	99	91
O=C(c1cnc2ccc(F)cc2c1S(=O)(=O)c1ccc(Br)cc1)N1CCCC1	-6	101	x	x
O=C(Nc1cccc(Cl)c1)c1nnc(COCC(=O)N2CCN(c3ccccc3)CC2)s1	-37	103	x	x
O=C1CC(C(=O)O)C2(CCCC2)O1 (stereo not given)	4	105	105	106
CCS(=O)(=O)c1ncc(N(Cc2cccc(F)c2)Cc2ccco2)c(C(=O)Nc2ccccc2Cl)n1	-39	98	93	82
Cc1nc2cc(-c3noc(C4CCCC4)n3)ccc2n(C2CCCC2)c1=O	-18	99	x	x
O=C(NCN1CCCCC1)C12CC3CC(CC(C3)C1)C2	-15	x	91	92
OC(CN1CCN(c2nc3ccc(Cl)cc3s2)CC1)c1ccccc1 (stereo not given)	x	104	126	94
Cc1ccc(-c2cc(C(=O)Nc3c(C(=O)c4ccccc4)oc4ccccc34)no2)cc1F	13	100	100	90
C=CCNC(=O)C1CC(=O)N(c2ccc(OCC(=O)Nc3ccc(F)c(Cl)c3)cc2)C1 (stereo not given)	-11	106	114	89
CCOC(=O)COc1cc(Br)c(/C=c2\sc3nc4ccccc4n3c2=O)cc1OC	-12	140	x	x
COc1ccc(S(=O)(=O)N(CCc2ccccc2)CC(=O)Nc2ccc(C)c(C)c2)cc1OC	-32	107	107	93
Cc1cnc(C(=O)Nc2ccc(N3CCCCC3)cc2)cn1	-36	x	94	84
CCNc1cc(N2CCCCCC2)c2noc3c2c1C(=O)c1ccccc1-3	-69	-20*	80	44
COc1ccc(C(C(=O)NC2CCCC2)N(Cc2ccco2)C(=O)Cn2nc(C(F)(F)F)c3c2CCCC3)cc1 (stereo not given)	-36	107	123	97
O=C(/C=C/c1ccc2c(c1)OCO2)Nc1ccc(-n2nncc2-c2ccccc2)cc1	x	98	102	83
Cc1cccc(NC(=O)COC(=O)/C=C/c2ccc(C)o2)c1	-32	x	84	91
O=C(NCCCN1CCN(c2ccccc2)CC1)C1CCCN(c2nc3cccnc3s2)C1 (stereo not given)	-18	103	x	x
O=c1oc2cc3occ(-c4ccccc4)c3cc2c2c1CCCC2	-18	105	81	81
CN1CCN(Cc2cc(=O)n3[nH]c(-c4ccccc4)nc3n2)CC1	-12	92	x	x
COc1ccc(NC(=O)c2ccco2)cc1NC(=O)c1ccc(C)c(C)c1	2	105	100	91
CC(C)c1ccc2c(c1)-c1ccccc1S(=O)(=O)N2CC(=O)Nc1ccc2c(c1)n(C)c(=O)n2C	-21	96	x	x
CCCN(CC(=O)Nc1ccc(F)c(F)c1F)CC(=O)Nc1c(C)n(C)n(-c2ccccc2)c1=O	-6	x	122	103
CC1Oc2ccc(S(=O)(=O)N3CCN(C(=O)Nc4ccc(F)cc4)CC3)cc2NC1=O (stereo not given)	-13	107	x	x
Cc1cc(C)n(CCc2nc(-c3ccc(C)c(C)c3)cs2)n1	21	x	99	91
CCCN(C(=O)NCc1noc2ccc(C)cc12)c1ccc(Cl)c(Cl)c1	x	103	102	90
Cc1ccc2c(c1)N(C(=O)c1ccco1)C(C)(C)c1ssc(=S)c1-2	11	105	105	99
COCCn1c(SCC(=O)NCc2ccccc2Cl)nc2cc(C(=O)OC)ccc2c1=O	x	101	117	90
Nc1c(-c2nc(-c3ccc(Cl)cc3)no2)nnn1-c1ccc(C(F)(F)F)c(Cl)c1	x	104	115	93
CCc1ccccc1NC(=O)Cn1c(C(=O)OC)cc2ccsc21	0	110	92	71
O=c1ccc2c(OCCCCc3ccccc3)c3ccoc3cc2o1	-28	104	x	x
Cn1c(SCC(=O)Nc2nc3ccccc3s2)ncc(C(=O)Nc2ccc(F)cc2)c1=O	x	102	136	85
Cc1ccc(C(O)(c2nc3ccccc3[nH]2)C(F)(F)F)c(O)c1 (stereo not given)	2	x	78	84
CCOC(=O)c1c(/C=C/C(=O)O)c(C)n(CC)c1C	-1	x	92	86
CCC(C(=O)O)n1nc(-c2ccccc2)c2cc(Cl)ccc21 (stereo not given)	-16	98	48	48
COc1ccc(Nc2cc(C(F)(F)F)ccc2Cl)c(C(=O)O)c1	29	100	45	13
COC(=O)c1cc2cc(Br)ccc2oc1=O	x	97	104	93
O=C(c1ccc2ccccc2n1)n1nc2ccccc2n1	-6	x	92	85
O=C(c1cn[nH]c1)c1cc(Cl)cc(Cl)c1O	-24	x	106	82
Cc1cc2n(n1)C(/C=C\c1ccccc1)Nc1c(C)cccc1-2 (stereo not given)	x	98	90	64
CCOc1ccccc1NC(=O)c1cnn2c(C(F)F)cc(-c3ccccc3)nc12	-24&-6	99&98	89	86
O=S(Cc1cc(Sc2ccccc2)nc(-c2ccccc2)n1)c1ccccc1 (stereo not given)	-24	102	x	x

Not a hit list; 0.79% or so of the library scored in one or more.
